Screening results: PubChem, National Center for Advancing Translational Sciences (NCATS)
gsp antag – qHTS for Antagonists of gsp, the Etiologic Mutation Responsible for Fibrous Dysplasia/McCune-Albright Syndrome: qHTS; hit rate 0.4% among 340,000; AID 624288, 2012; gsp-mutant cells, cAMP HTRF, 30 min; control for the full effect not named in the record; Potency, µM (highest dose often 76.9 µM), for inactives: top-dose activity change, negative = inhibition, usual class: inhibitors; active = falling curve of any shape with a large fitted effect; inconclusive = falling curve, mostly with a smaller effect; inactive = flat or rising curve; cell line not stated here;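 further: intracellular cAMP measured with PDE inhibitor Ro 20-1724 present during compound exposure; potency means the concentration at half of the fitted maximal effect; on the % scale 0 is the no-effect control and ±100 the full control effect; nearly all actives have a fitted effect of over 65% in size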
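Cells, 2000/well, grown 16–24 h in DMEM 10% FBS with 0.5 mg/ml G418, then compounds plus […] (300 uM addition stock), 30 min at 37C. cAMP read by HTRF (cAMP-d2 and anti-cAMP antibody-K in lysis buffer) after 30 min RT.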
gsp agonist – qHTS for Agonist of gsp, the Etiologic Mutation Responsible for Fibrous Dysplasia/McCune-Albright Syndrome: qHTS | AID 624287, 2012 | Potency, µM (doses to about 76.9 µM), without a hit: top-dose activation (cAMP increase), hits mostly activators | gsp mutant cells, cAMP HTRF, 30 min; control for the full effect not named in the record | hit rate 0.13% among 340,000; active = well fitted activation curve with a large enough effect; inconclusive = small, poorly fitted or top-dose-only effect, or another doubt; inactive = no such curve, though single readings can be large or run the other way; cell line not stated here;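 further: phosphodiesterase inhibitor Ro 20-1724 added with compounds to block cAMP breakdown; potency means the concentration at half of the fitted maximal effect; nearly all actives have a fitted effect of over 60% in size; about a fifth of the inactives were tested at one dose only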
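Cells in DMEM/10% FBS with G418 were pretreated with compounds in DMSO plus […] (300 uM stock) for 30 min at 37C. cAMP was measured by HTRF (cAMP-d2 plus anti-cAMP antibody-K) after 30 min at room temperature.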
D2 agonist – Beta-Arrestin HTS for Positive Allosteric Modulators of the Human D2 Dopamine Receptor: Agonists; activation, % (test concentration not listed); AID 624465, 2012; D(2) dopamine receptor (Homo sapiens), P14416; hit rate 0.084% among 360,000; DiscoveRx PathHunter D2 beta-arrestin, luminescence, 90 min; 100% = 57 uM dopamine signal; in the data active = activation above about 40%; inconclusive = about 15% to 40%; inactive = below about 15%; further: compound concentration not given in the record; the text of the record calls up to 30% inactive
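Agonist mode: compounds alone added to overnight-plated D2 PathHunter cells for 90 min at 37 C, with 57 uM final dopamine (EC100) defining full response. Beta-arrestin recruitment detected by chemiluminescent reagent, read after 1 h at ambient temperature.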
D2 PAM – Beta-Arrestin HTS for Positive Allosteric Modulators of the Human D2 Dopamine Receptor: Potentiators; D(2) dopamine receptor (Homo sapiens), P14416; DiscoveRx D2 beta-arrestin cells, luminescence, 90 min; 100% = 57 uM dopamine signal; potentiation, % (no concentration beside the values); hit rate 0.23% among 360,000; active = potentiation of 50% or more; inconclusive = 30% to 50%; inactive = 30% or less;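 further: compound concentration not given in the record; tested on top of an EC20 dose of dopamine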
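PathHunter D2 cells, attached overnight at 37 deg C, received compound in DMSO plus dopamine at EC20 (50 nM final) for 90 min at 37 deg C. Beta-arrestin recruitment was read as luminescence after 1 h with detection reagent at ambient temperature.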
CtBP-E1A inh – qHTS Assay for Inhibitors of the CtBP/E1A Interaction. CtBP / adenovirus E1A interaction (AlphaScreen). AlphaScreen GST-E1A/His-CtBP binding, 1536-well; stronger effect = lower value; control for the full effect not named in the record. activity change, % (concentration not given with the values). hit rate 0.49% among 340,000. AID 651724, 2012; in the data active means activity change below about -65%; inconclusive means about -30% to -65%; inactive means above about -30%; further: on the % scale 0 is the no-effect control and ±100 the full control effect
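AlphaScreen with 125 nM GST-E1A and 125 nM His-CtBP (5X stocks) in Tris pH 8.0, 300 mM NaCl, BSA, Tween 20, TCEP. Compounds preincubated 2 h at 37 deg C, then glutathione donor/nickel acceptor beads added for 1 h at 37 deg C in dark.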
Six1-Eya2 blk – qHTS Assay for Inhibitors of the Six1/Eya2 Interaction. Homeobox protein SIX1 (Homo sapiens) + Protein phosphatase EYA2 (Homo sapiens), …. AlphaScreen GST-Six1/His-Eya2 binding, biochemical; stronger effect = lower value; control for the full effect not named in the record. activity change, % (test concentration not listed). hit rate 0.56% among 360,000. AID 651725, 2012; in the data active = activity change below about -65%; inconclusive = about -30% to -65%; inactive = above about -30%; further: on the % scale 0 is the no-effect control and ±100 the full control effect; compound concentration not given in the record
Target sequence (O00167 whole entry, looked up): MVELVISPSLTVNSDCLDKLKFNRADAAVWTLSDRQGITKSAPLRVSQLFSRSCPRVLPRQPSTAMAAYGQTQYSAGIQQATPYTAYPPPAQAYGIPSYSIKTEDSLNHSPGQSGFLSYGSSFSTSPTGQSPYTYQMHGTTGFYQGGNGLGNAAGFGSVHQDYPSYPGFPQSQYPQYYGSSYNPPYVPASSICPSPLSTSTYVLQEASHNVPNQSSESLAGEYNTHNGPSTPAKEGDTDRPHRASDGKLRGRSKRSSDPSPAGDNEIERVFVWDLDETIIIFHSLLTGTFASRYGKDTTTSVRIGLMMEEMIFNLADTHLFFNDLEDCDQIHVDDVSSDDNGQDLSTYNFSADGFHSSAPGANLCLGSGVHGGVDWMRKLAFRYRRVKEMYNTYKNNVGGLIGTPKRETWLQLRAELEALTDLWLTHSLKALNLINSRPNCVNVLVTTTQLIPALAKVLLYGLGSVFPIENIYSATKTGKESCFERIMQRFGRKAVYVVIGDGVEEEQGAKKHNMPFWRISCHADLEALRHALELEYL
Target sequence (Q15475 whole entry, looked up): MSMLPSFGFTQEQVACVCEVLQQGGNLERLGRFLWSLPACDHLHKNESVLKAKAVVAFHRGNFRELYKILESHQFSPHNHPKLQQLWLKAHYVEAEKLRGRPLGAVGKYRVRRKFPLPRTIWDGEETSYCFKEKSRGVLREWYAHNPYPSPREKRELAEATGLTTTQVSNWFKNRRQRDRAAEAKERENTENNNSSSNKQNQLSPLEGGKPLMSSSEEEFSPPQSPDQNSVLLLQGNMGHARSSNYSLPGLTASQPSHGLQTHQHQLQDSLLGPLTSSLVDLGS
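Six1/Eya2 binding was read as AlphaScreen signal after compounds were pinned into GST-Six1 plus His-tagged Eya2 (5X stock 250/500 nM) in pH 8.0 Tris/NaCl/TCEP buffer, beads added, then incubated 1 h, 37 C, dark.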
Active calls of the source: *; ? = inconclusive; . = no result given; [ ] = dose if it differs, or a comment.

SMILES	gsp antag	gsp agonist	D2 agonist	D2 PAM	CtBP-E1A inh	Six1-Eya2 blk
CC(C)N(Cc1nccn1C)C(=O)c1ccc2oc(CCCc3ccccc3)nc2c1	-14%	-40%[inhibitor]	-1.0	-11	1	-8
NC(CSCc1cccc(Br)c1)C(=O)O (configuration not stated)	-3%	?	-3.5	-5	.	0
CCOc1ncccc1C(=O)Nc1cccc(-n2cnnn2)c1C	6%	0%	-2.9	-4	-2	2
Cc1ccc2nc(SCC(=O)Nc3c(F)cccc3F)[nH]c2c1	6%	-40%[inhibitor]	4.2	-3	-4	-4
CCCCNC(=O)c1ccc(N2CCC3(CC2)OCCO3)c([N+](=O)[O-])c1	-1%	-9%[15.4 µM]	-2.2	-6	12	-17
Cc1ccc(C(=O)NCc2ccccc2F)cc1S(=O)(=O)N1CCCC1	.	2%[15.4 µM]	2.1	-10	1	5
Cc1ccc(OCCCn2ccnc2)c(Br)c1	-1%	6%	-4.0	-30	.	6
CSc1oc(-c2ccccc2)nc1S(=O)(=O)c1ccc(F)cc1	-6%	-14%	-0.4	-11	-22	-1
O=C(CC1SCCNC1=O)Nc1cccc(Cl)c1 (configuration not stated)	3%	-36%[inhibitor]	0.4	7	-3	0
Cc1oc(-c2ccccc2Cl)nc1CS(=O)CC(=O)NCc1ccccc1Cl (configuration not stated)	-3%	-33%	-8.6	-12	-2	-2
CCCn1nnc(NC(=O)c2ccc(Br)cc2)n1	3%	-5%	-3.5	-13	-10	-1
CN(C)/C=N/c1c(C#N)cnn1C	8%	-51%[inhibitor]	4.2	-7	5	-6
CCOC(=O)c1c(NC(=S)SC)sc(C(=O)N2CCc3ccccc3C2)c1C	.	-13%	-3.5	-8	0	-4
COC(=O)c1ccccc1NC(=S)NC(=O)c1ccccc1	-2%	-29%	-3.1	-14	6	-22
FC(F)Oc1ccc(-n2cc(-c3ccccc3)[n+]3c2CCCCC3)cc1	5%	2%[15.4 µM]	-5.8	-4	-4	22
CCCn1c(S(=O)(=O)O)nc2ccccc21	12%	-6%[15.4 µM]	0.6	10	3	-3
Cc1ccc(S(=O)(=O)NCC(=O)OC(C)C(=O)c2ccccc2)cc1 (configuration not stated)	-20%	-23%	-5.5	-17	-2	8
C#CCn1c(=NC(=O)CN2C(=O)CCC2=O)sc2cc(S(N)(=O)=O)ccc21	4%	12%[15.4 µM]	4.5	-19	-19	-1
Cc1ccccc1C(=O)NCCCNC(=O)c1ccco1	19%	-3%[15.4 µM]	-0.4	-10	-5	3
O=S(=O)(c1ccccc1)N1N=C(c2ccc(O)cc2)CC1c1ccco1 (configuration not stated)	-22%	-19%	0.3	-5	22	0
CS(=O)(=O)N(CC(=O)N1CCc2ccccc2C1)Cc1ccc(Cl)cc1	-2%	15%	-3.0	-4	4	-1
O/N=C1/C2C3C(Br)C4C5CC(C1C53)C24 (configuration not stated)	15%	-17%	-1.6	0	2	-9
COc1ccc(OCc2cc(C(=O)N(Cc3nccn3C)C(C)C)no2)c2ccccc12	8%	-20%	12	-4	.	-11
CC(C)C(OC(=O)c1ccco1)C(=O)NCc1ccco1 (configuration not stated)	-3%	-2%	1.1	-10	-1	2
COc1ccc(CNC(=O)CN2CCN(c3cccc(C)c3C)CC2)cc1	-9%	-3%	-1.7	-8	3	7
COc1ccc(/C=C/C(=O)c2cccc(-n3cnnn3)c2)cc1O	-5%	-10%[15.4 µM]	1.5	6	2	-2
O=C(c1cccc(N2C(=O)C3C4C=CC(C4)C3C2=O)c1)N1CCN(c2ccccc2)CC1 (configuration not stated)	3%	7%[15.4 µM]	-6.6	0	-4	12
CC(O)[C@@H](C(=O)N1CCNCC1)n1cc(CCCCN)nn1 (some centres not stated)	-1%	.	-2.1	-5	0	-7
CCOC(=O)C1=C(C)N=c2s/c(=C\c3ccc(OCC(=O)O)c(OC)c3)c(=O)n2C1c1ccc(OC)cc1 (configuration not stated)	?	?	7.0	-3	-4	-5
COc1ccc(C(=O)N2CCN(S(=O)(=O)c3ccc(C)cc3C)CC2)cc1S(=O)(=O)N1CCOCC1	-8%	-26%	-0.6	9	.	-6
CCOc1ccc(C(C(=O)NCC2CCCO2)N(Cc2cccc(OC)c2)C(=O)c2snc(C(N)=O)c2N)cc1 (configuration not stated)	-20%	-7%[15.4 µM]	-1.9	-1	0	-5
O=S(=O)(O)c1cccc2cccc(Nc3ccccc3)c12	-3%	?	13	13	-2	-12
COc1cc(/C=C/C(=O)Nc2cccnc2)cc(OC)c1OC	2%	?	-3.9	-20	.	3
C=CCOC(=O)C1=C[C@H](c2csc3ccccc23)C[C@H](OCCCCO)O1	-13%	13%	4.6	7	2	-1
COc1ccc(C2c3sc(=O)[nH]c3SC3C(=O)N(c4ccccc4)C(=O)C32)cc1 (configuration not stated)	-17%	27%	-3.0	-9	0	-2
O=C(COC(=O)Cn1cnc2ccccc21)NCCC1=CCCCC1	13%	2%	-1.1	-16	-13	-7
CN1CCN(C(=O)c2ccc(NS(=O)(=O)c3cccc([N+](=O)[O-])c3)cc2)CC1	9%	-3%[15.4 µM]	-3.2	0	3	3
Cc1cccc(NC(=O)c2ccc(N3C(=O)C4C5C=CC(C6CC56)C4C3=O)cc2)c1 (configuration not stated)	-25%	?	2.2	-9	12	5
CCOC(=O)c1ccc(N2C(=O)c3n[nH]c(C)c3C2c2ccc(O)cc2)cc1 (configuration not stated)	-27%	2%	-5.4	-22	-4	-2
N#Cc1cc([N+](=O)[O-])ccc1NC(=O)COC(=O)CC1CCCC1	16%	-36%[inhibitor]	0.4	0	-7	2
Cc1ccccc1CSc1nsc(N)n1	10%	-38%[inhibitor]	0.5	-3	4	1
NC(=S)N/N=C/c1c[nH]c2ccccc12	6%	3%	-0.2	-8	2	-11
CCOc1cc(S(=O)(=O)N2CCC(c3nc4ccccc4s3)CC2)c(OCC)cc1S(=O)(=O)N1CCCCC1	13%	-19%	-1.1	-2	6	0
Cc1noc(C)c1CSc1nnc(-c2ccccc2)n1Cc1ccco1	13%	?	-1.8	-20	-7	0
O=C(CSc1nnc(NC(=O)c2ccco2)s1)Nc1ccc(F)cc1	-8%	10%	-0.9	-2	.	20
COc1cc(OC)c2c(C)cc(=O)oc2c1C(CCN1CCOCC1)c1ccc(N(C)C)cc1 (configuration not stated)	10%	.	-2.0	-22	-27	?
COc1ccc(-c2nn(-c3ccccc3)cc2C(=O)N(C)C)cc1	6%	1%	-1.6	-11	-4	2
Cc1cnc(NC(=O)c2ccc3c(c2)C(=O)N(Cc2cccnc2)C3=O)s1	-12%	5%	1.9	-10	10	7
O=C(NCc1ccco1)c1ccccc1NC(=O)C1CC(=O)N(c2ccc(Cl)cc2)C1 (configuration not stated)	-15%	11%	0.0	2	-5	-4
O=C(Oc1cccc(C(=S)N2CCOCC2)c1)c1ccc([N+](=O)[O-])cc1	.	5%[15.4 µM]	2.6	8	-15	?
CC1(N2CCOCC2)C(=O)c2ccccc2C1=O	16%	9%[15.4 µM]	-8.0	1	10	2
COc1cccc(OCc2nn3c(=O)c(-c4ccccc4)nnc3s2)c1	-12%	-12%[15.4 µM]	-1.1	6	1	6
Cn1cc(C(C[N+](=O)[O-])c2ccccc2)c2ccccc21 (configuration not stated)	-2%	0%	-5.9	-1	0	3
Cc1cnc(C(=O)OCC(=O)c2ccccc2)cn1	-2%	-6%[15.4 µM]	-3.5	0	-8	2
O=C(Cn1c(=O)oc2ccccc21)Nc1ccccc1N1CCOCC1	9%	-25%	1.7	-18	12	-6
Cc1cc2ccccc2c(=O)n1CC(=O)N1CCN(c2cccc(Cl)c2)CC1	-4%	-2%[15.4 µM]	-4.8	-5	-9	0
CCOC(=O)c1c(NC(=O)COC(=O)c2ccccc2NC)sc(C(=O)N(C)C)c1C	?	9%	-3.2	7	23	16
O=C1C(Cl)=C(NC2CCCCC2)C(=O)N1Cc1ccccc1	6%	24%[15.4 µM]	0.3	-3	36	33
CCCC(c1nnnn1CC1CCCO1)N1CCN(c2nc3ccccc3s2)CC1 (configuration not stated)	-2%	-4%	-0.5	0	-7	3
CCCNC(=O)NC(=O)COC(=O)c1ccc(OC)c(S(=O)(=O)N2CCCc3ccccc32)c1	0%	-8%	-4.4	-5	10	-1
C[C@@H]1COC(=O)[C@H](Cc2ccc(F)cc2)CC/C=C/C[C@@H](CC(=O)N[C@H](CO)Cc2ccccc2)C(=O)N1	2%	-23%	-1.4	3	.	-5

Reformatted in CSV form: ten of the compounds above.
SMILES,gsp antag,gsp agonist,D2 agonist,D2 PAM,CtBP-E1A inh,Six1-Eya2 blk
CC(C)N(Cc1nccn1C)C(=O)c1ccc2oc(CCCc3ccccc3)nc2c1,-14%,-40%[inhibitor],-1.0,-11,1,-8
NC(CSCc1cccc(Br)c1)C(=O)O (configuration not stated),-3%,?,-3.5,-5,.,0
CCOc1ncccc1C(=O)Nc1cccc(-n2cnnn2)c1C,6%,0%,-2.9,-4,-2,2
Cc1ccc2nc(SCC(=O)Nc3c(F)cccc3F)[nH]c2c1,6%,-40%[inhibitor],4.2,-3,-4,-4
CCCCNC(=O)c1ccc(N2CCC3(CC2)OCCO3)c([N+](=O)[O-])c1,-1%,-9%[15.4 µM],-2.2,-6,12,-17
Cc1ccc(C(=O)NCc2ccccc2F)cc1S(=O)(=O)N1CCCC1,.,2%[15.4 µM],2.1,-10,1,5
Cc1ccc(OCCCn2ccnc2)c(Br)c1,-1%,6%,-4.0,-30,.,6
CSc1oc(-c2ccccc2)nc1S(=O)(=O)c1ccc(F)cc1,-6%,-14%,-0.4,-11,-22,-1
O=C(CC1SCCNC1=O)Nc1cccc(Cl)c1 (configuration not stated),3%,-36%[inhibitor],0.4,7,-3,0
Cc1oc(-c2ccccc2Cl)nc1CS(=O)CC(=O)NCc1ccccc1Cl (configuration not stated),-3%,-33%,-8.6,-12,-2,-2
